Vif TR-FRET – inhibitors of Vif binding to APOBEC3G peptide, primary screen, biochemical, TR-FRET, GST-Vif 1-94, biotin-A3G peptide, dose response retest (AID 1117319). TR-FRET GST-Vif / biotin-A3G peptide binding; higher % means a stronger effect; test concentration not given here; strong numbers were not always called active. inhibition, %, or IC50 in µM where a hit was titrated. 260,000 compounds, 0.57% hits;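 active = above the screen mean plus three standard deviations and confirmed in dose response; inconclusive = results disagree or hit not tested in dose response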;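 also: Vif residues 1-94 fused to GST binding biotinylated APOBEC3G peptide 110-148; 0% = full assay without inhibitor and 100% = GST in place of GST-Vif; retest series ran down from 100 µM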
UCH37 DUB inh – blocks the human deubiquitinase UCH37; Q9Y5K5; purified proteasome/UCH37, Ub-AMC cleavage fluorescence; inhibition, % (test concentration not listed); 330,000 compounds, 0.33% hits; AID 588478;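 active = mean of two replicates above 20%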;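 also: 0% = compound-free wells with enzyme and 100% = wells lacking proteasome; stock transfer was 100 nL into about 20 µL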
Target sequence (Q9Y5K5 whole entry, looked up): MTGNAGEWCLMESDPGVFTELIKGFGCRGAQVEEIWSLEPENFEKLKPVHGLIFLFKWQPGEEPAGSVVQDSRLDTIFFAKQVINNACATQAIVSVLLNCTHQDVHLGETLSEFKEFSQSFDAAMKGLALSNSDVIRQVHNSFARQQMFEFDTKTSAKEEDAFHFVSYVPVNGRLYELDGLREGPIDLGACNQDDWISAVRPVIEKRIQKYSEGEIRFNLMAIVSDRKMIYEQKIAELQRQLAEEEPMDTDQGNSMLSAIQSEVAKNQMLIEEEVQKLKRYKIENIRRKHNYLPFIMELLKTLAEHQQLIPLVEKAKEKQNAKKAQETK
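system = Proteasome-associated human UCH37 deubiquitinase | amount = 0.15 nM proteasome as dispensed | medium = pH 7.4 Tris-HCl (50 mM) with ovalbumin, ATP-MgCl2, DTT | incubation = 30 min preincubation with enzyme, 25 min cleavage at room temperature | detection = AMC fluorescence 355/460 nm | read-out basis = percent inhibition | controls = no-proteasome and no-compound wells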
AF4-AF9 inh – blocks AF4 peptide binding to human AF9; AlphaScreen, biotin-AF4 peptide binding to FLAG-AF9; inhibition, % at 10 µM; 350,000 compounds, 0.47% hits; AID 651704;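 active = every replicate reaching a set inhibition limit, whatever the replicate mean, cut at about 25% in these data; inconclusive = mean inhibition reaches that limit but some replicates miss it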;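 also: 0% = plate neutral control median and 100% = total signal loss; the record names both 10 and 1 µM as test concentration; the first replicate is given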
Target sequence (P42568 whole entry, looked up): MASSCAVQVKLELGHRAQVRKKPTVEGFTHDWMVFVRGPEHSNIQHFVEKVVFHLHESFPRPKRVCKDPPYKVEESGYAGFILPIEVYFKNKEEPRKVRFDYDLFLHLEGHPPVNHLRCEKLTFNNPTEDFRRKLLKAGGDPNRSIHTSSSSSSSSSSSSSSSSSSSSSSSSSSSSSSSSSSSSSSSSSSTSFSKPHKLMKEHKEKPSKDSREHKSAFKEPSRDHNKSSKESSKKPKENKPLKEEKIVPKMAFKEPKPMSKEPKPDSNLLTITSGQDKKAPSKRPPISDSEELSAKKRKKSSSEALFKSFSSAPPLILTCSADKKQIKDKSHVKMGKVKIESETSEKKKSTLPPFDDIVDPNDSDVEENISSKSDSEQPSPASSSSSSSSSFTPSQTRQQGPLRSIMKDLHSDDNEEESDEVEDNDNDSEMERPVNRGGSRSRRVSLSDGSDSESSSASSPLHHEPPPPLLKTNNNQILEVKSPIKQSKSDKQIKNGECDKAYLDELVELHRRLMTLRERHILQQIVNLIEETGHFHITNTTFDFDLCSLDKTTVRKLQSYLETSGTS
Ecoli growth – E. coli growth inhibition. AID 1053175. Escherichia coli growth, OD600, 23 h; hits give low values. OD600 absorbance (concentration not given with the values). 330,000 compounds, 0.21% hits;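 active = OD600 absorbance below the run mean of sample wells minus 3.6 SD, in any replicate, cut at about 0.56 in these data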;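 also: stock transfer was 300 nL into about 60 µL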
RanGTP-Imp inh – disruptors of Ran-importin-beta complex formation – biochemical, FRET, CFP-Ran, YFP-importin-beta, homogeneous, primary screen | AID 2216 | 300,000 compounds, 1.1% hits | cell-free CFP-Ran/YFP-importin-beta FRET ratio | inhibition, % (no concentration beside the values);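 active = most replicates above 15%; inconclusive = exactly half above 15%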;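 also: 0% = DMSO wells and 100% = Ran loaded with GDP instead of GTP; wells of about 40 µL received 100 nL stock; the first replicate is given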
HNF4A DNA FP – change in binding of human HNF4 alpha to DNA | P41235 | HNF4a-FITC DNA binding, fluorescence polarization, 1 h | activity change, % at 10 µM | 360,000 compounds, 0.3% hits | AID 1224865; in the data active = activity change above about 30%, passing the limit was not always enough;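 also: controls were the assay level and a saturating level of protein; the project sought stronger binding though the title names inhibitors; some compounds called inactive have numbers as strong as hits; positive values seem to mean higher polarization but the record does not say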
FGF22 binding – shifts melting point of recombinant human FGF22; recombinant FGF22 thermal shift, SYPRO orange fluorescence; percent of sucrose octasulfate shift, DMSO zero; AID 651658; calls only at 9.99 µM; 340,000 compounds, 1.5% hits;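 active = melting point raised past a set limit in the mean and every replicate; inconclusive = no clear call; three in four hits are not shown here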
Target sequence (Q9HCT0 whole entry, looked up): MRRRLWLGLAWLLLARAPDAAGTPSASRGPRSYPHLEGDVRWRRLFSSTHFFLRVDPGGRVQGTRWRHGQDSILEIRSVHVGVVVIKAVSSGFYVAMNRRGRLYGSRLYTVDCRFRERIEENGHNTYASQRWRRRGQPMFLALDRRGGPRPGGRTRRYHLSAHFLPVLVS
An asterisk follows results filed as active; i = inactive; ? = inconclusive; · = not tested or not shown; & = joins results of further samples. Some of the compounds tested. The share of hits here may be higher or lower than overall.

Preview:
SMILES	Vif TR-FRET	UCH37 DUB inh	AF4-AF9 inh	Ecoli growth	RanGTP-Imp inh	HNF4A DNA FP	FGF22 binding
COc1ccc(-n2c(=O)c3c4c(sc3n(CC(=O)Nc3cc(C)[nH]n3)c2=O)CCCC4)c(OC)c1	8%	3.5	-2.4	0.67	2.7	2.2	i
Cc1cc(C)n2nc(C(=O)OCC(=O)NC3CCCCC3)nc2n1	-11%	4.8	2.1	0.69	0.8	-3.3	i

Main list (from the top)
SMILES	Vif TR-FRET	UCH37 DUB inh	AF4-AF9 inh	Ecoli growth	RanGTP-Imp inh	HNF4A DNA FP	FGF22 binding
COc1ccc(-n2c(=O)c3c4c(sc3n(CC(=O)Nc3cc(C)[nH]n3)c2=O)CCCC4)c(OC)c1	8%	3.5	-2.4	0.67	2.7	2.2	i
Cc1cc(C)n2nc(C(=O)OCC(=O)NC3CCCCC3)nc2n1	-11%	4.8	2.1	0.69	0.8	-3.3	i
O=C(O)Cn1c(SCCOc2ccc(Cl)cc2)nc2ccccc21	·	1.6	-1.4	0.62	-1.7	0.7	i
O=C(c1cccc(C(=O)N2CCN(Cc3ccccc3)CC2)c1)N1CCN(Cc2ccccc2)CC1	2%	1.3	·	0.74	5.7	1.5	·
O=C1CC(c2cccs2)c2ccc3ccccc3c2N1 (centres undefined)	-7%	3.7	-2.7	0.7	4.8	-0.8	i
CCOC(=O)c1ccc(Cl)c(NC(=O)c2cccnc2)c1	-1%	-0.6	·	0.67	5.6	·	·
CC(C)(C)CNC(=O)c1cc2c(Br)ccc(Br)c2nc1N	·	·	0.2	·	·	-1.4	i
C#CCOCCOCCOCCNc1nc(N2CCN(C(=O)Cn3cc(CC(C)O)nn3)CC2)nc(N2CCN(C(=O)[C@H]([C@@H](C)O)n3cc(CCCCN)nn3)CC2)n1 (some centres undefined)	·	-1.0	?	·	·	-1.5	i
Cc1ncc([N+](=O)[O-])n1CC(=O)Nc1ccc(Br)cc1	2%	7.1	-7.6	0.66	0.8	-3.0	i
Cn1cccc1Cc1nnc(SCC(=O)N2CCc3ccccc32)n1-c1ccc(F)cc1	20%	3.3	-1.8	0.74	-2.4	1.1	i
CN(C)N1C(N)=C(C#N)C(c2ccc3c(c2)OCO3)C2=C1CC(C)(C)CC2=O (centres undefined)	-2%	3.5	1.6	0.7	3.0	2.4	i
Cc1ccc(Cl)cc1N1CCN(C(=O)c2ccc(CS(=O)Cc3ccc(Cl)cc3)o2)CC1 (centres undefined)	-6%	0.8	2.3	0.7	-3.1	4.6	i
Cc1ccccc1NC(=O)CSc1nnc(NC(=O)C2CC2)s1	·	-0.2	1.0	0.7	-1.7	-0.4	i
Cc1cc(C)cc(N2CCCn3c2nc2c3c(=O)n(CC(=O)OCc3ccccc3)c(=O)n2C)c1	4%&-9%	1.5	-10	0.67	3.9	1.9	i
S=c1[nH]nc(Cc2ccc(Cl)cc2)o1	10%	0.3	3.0	0.65	5.2	-2.5	i
CC1CCN(c2ccc(C(=O)O)cc2)CC1	2%	-0.9	·	0.72	0.7	-2.8	·
COc1ccc(C2(c3ccc(O)cc3O)CC(c3ccccc3Cl)NC(=S)N2)cc1 (centres undefined)	·	-1.1	13	0.63	2.3	2.9	·
O=C(O)c1ccoc1CN1CCCCC1	-3%	-0.4	·	0.7	0.8	0.4	·
Cc1cc(S(=O)(=O)Nc2ccc(C(=O)NCc3cccnc3)cc2)ccc1F	-1%	-1.3	-2.0	0.69	2.4	-0.2	i
Cc1ccc(OCCCC(=O)Nc2cc(Cl)ccc2-n2cncn2)cc1	-2%	6.4	-2.8	0.73	-2.6	-0.5	i
CSc1ccc(-c2nnn(CC(=O)NCc3ccccc3)n2)cc1	-8%	1.4	·	0.8	-2.8	-0.1	·
C#CCSc1nnnn1-c1ccc(OCC)cc1	?	2.8	-3.6	0.64	2.7	2.0	i
Nc1[nH]c(=O)nc(Nc2ccccc2)c1N=O	·	5.8	-2.7	0.69	38*	-0.7	i
COCOCCn1cc(CN2CCS(=O)(=O)N(Cc3ccc(-c4ccc(OC)c(OC)c4)cc3)C(C)C2=O)nn1 (centres undefined)	·	·	2.4	·	·	-1.6	i
Cc1cc(C)c(OCC(=O)OCC(=O)N2CCc3ccccc3C2)c(C)c1	1%	0.1	-1.9	0.62	-5.9	0.5	i
CC(Cl)C(=O)c1c(N)n(C)c(=O)n(C)c1=O (centres undefined)	5%	1.1	1.3	0.69	-2.8	-0.5	i
COc1ccccc1S(=O)(=O)N1CCN(S(=O)(=O)c2ccccc2C#N)CC1	5%	5.5	-0.8	0.66	-4.7	5.3	·
COc1ccc(NS(=O)(=O)c2cccc(C(=O)N3CCCCCC3)c2)cc1	·	0.5	-1.8	0.68	7.5	1.3	i
CCN(C(=O)COC(=O)CNS(=O)(=O)c1ccc2ccccc2c1)C1CCCCC1	-5%	-1.0	-0.5	0.61	4.2	1.1	i
COc1ccc(S(=O)(=O)N(C)CC(=O)NCCc2ccccc2)cc1OC	-4%	3.2	-0.6	0.69	-2.0	-0.3	i
CCOc1ccc(NC(=O)CN(C)C(=O)c2ccc(COc3ccccc3)cc2)cc1OCC	10%	-0.4	2.7	0.67	·	2.8	i
Cn1c(=O)[nH]c(=O)c2c1nc(N1CCCCC1)n2C/C=N/Nc1ccc(C(=O)O)cc1	·	·	-10	·	0.8	0.4	i
Cc1c(C(C)C)c(=O)n(-c2ccc(S(=O)(=O)N3CCOCC3)cc2)n1C	7%	-1.5	-0.2	0.7	-1.2	0.2	i
COc1ccc(C2C(C(=O)c3ccco3)=C(O)C(=O)N2CC2CCCO2)c(OC)c1 (centres undefined)	-1%	7.1	-2.8	0.7	6.0	0.8	·
COc1cccc(CN2CCC(n3nccc3NC(=O)CCCc3ccccc3)CC2)c1	·	3.9	3.0	0.67	4.3	-0.4	i
CN(C)S(=O)(=O)c1cccc(N=C2SCCN2Cc2ccccc2)c1	20%	1.7	8.7	0.66	-0.7	1.6	i
CC(C)(C)c1cc(CCC(=O)NCc2cccnc2)cc(C(C)(C)C)c1O	7%	-2.8	2.2	0.69	0.3	-0.3	i
COc1cccc(NS(=O)(=O)NC(=O)c2cn(C)c3ccccc23)c1	·	3.4	2.8	0.68	1.6	4.1	i
COc1ccc(S(=O)(=O)N(C)C)cc1NC(=O)CCCSc1ccccc1	·	1.3	-2.3	0.67	-4.4	0.9	i
COc1ccccc1CNCc1cc(OC)c(OC)cc1OC	0%	2.0	2.1	0.73	2.2	1.9	i
Cc1ccc(C(=O)COC(=O)CNC(=O)c2ccc(N3C(=O)c4ccccc4C3=O)cc2)cc1C	?	1.3	-1.3	0.73	-0.9	8.1	i
COc1cccc(C(=O)Nc2ccc3[nH]ncc3c2)c1OC	·	2.5	-3.0	0.58	8.4	-4.3	i
COc1ccc(CNC(=O)C2CCC(CNS(=O)(=O)c3cccc4cccnc34)CC2)cc1 (centres undefined)	·	5.1	-2.1	0.7	4.2	0.7	i
COc1ccc(-c2nnc(SCC(=O)Nc3ccc(C)cc3)n2C)cc1	1%	3.3	·	0.7	0.1	0.4	·
COc1cc(-c2nnc(SCC(=O)Nc3cc(C)on3)n2C)cc(OC)c1O	4%	2.5	·	0.7	3.8	-1.7	·
O=C(NCCCCc1ccccc1)c1cccc(NC(=O)C2CC2)c1	·	·	-4.8	·	·	-1.5	i
O=S(=O)(c1ccc2ccccc2c1)N1CCc2ccccc21	1%	1.5	2.7	0.7	-4.0	1.4	i
Cn1nc(-c2ccccc2)c(C(=O)Nc2ccc(C(F)(F)F)cc2)c1Cl	-2%	3.3	·	0.67	-1.1	-1.3	·
Cc1nn(-c2ccccc2)c(N2CCCC2)c1/C=N/NC(=S)Nc1ccc(F)cc1	·	·	1.7	·	-4.6	-0.9	i
CC(NS(=O)(=O)c1ccc(Br)cc1)C(=O)NCc1ccc2c(c1)OCO2 (centres undefined)	-1%	7.9	-1.1	0.72	0.7	2.4	i

Taken from above:
COc1ccc(C2C(C(=O)c3ccco3)=C(O)C(=O)N2CC2CCCO2)c(OC)c1 (centres undefined) @ Vif TR-FRET: -1%
COc1ccccc1S(=O)(=O)N1CCN(S(=O)(=O)c2ccccc2C#N)CC1 @ UCH37 DUB inh: 5.5
Cc1ccccc1NC(=O)CSc1nnc(NC(=O)C2CC2)s1 @ UCH37 DUB inh: -0.2

Next structures follow:
SMILES	Vif TR-FRET	UCH37 DUB inh	AF4-AF9 inh	Ecoli growth	RanGTP-Imp inh	HNF4A DNA FP	FGF22 binding
COCCCN1C(=O)C(=O)/C(=C(/O)c2ccc(OC(C)C)cc2)C1c1cccnc1 (centres undefined)	?	3.0	·	·	0.5	-1.4	·
O=C(COc1cc(Cl)c(Cl)cc1Cl)Nc1cccc(O)c1	-9%	5.3	-2.0	0.7	2.5	-0.8	i
COc1ccc(C(CNC(=O)COc2ccccc2OC)N(C)C)cc1OC (centres undefined)	3%	-0.1	·	0.66	-1.2	1.6	·
CC(C)(C)OC(=O)N1CCCC(C(=O)Nc2cccc(C(=O)NCCc3ccccc3)c2)C1 (centres undefined)	·	·	-0.7	·	·	-4.6	i
CCCCNC(=O)c1nc(C2CCN(S(=O)(=O)c3c(OC)cccc3OC)CC2)oc1-c1ccccc1	·	·	0.1	·	·	6.5	i
Cn1c(SCC(=O)C(C)(C)C)nnc1-c1ccccn1	-1%	0.5	·	0.7	2.3	-3.3	·
O=C(CNC(=O)c1ccc(Cl)cc1Cl)OCC(=O)N1CCCC1	-1%	-0.9	-0.7	0.67	·	-0.5	i
CCSc1nnc(NC(=O)c2ccc3c(c2)OCO3)s1	-4%	-6.5	·	0.68	-2.0	7.1	·
Cc1cccc(Nc2nc(NCc3ccco3)nc(N3CCOCC3)n2)c1	-2%	0.4	·	0.66	-0.4	1.1	·
Cc1ccc(C)c(NC(=O)COC(=O)c2ccc(S(=O)(=O)N3CCCCC3)cc2)c1	3%	2.9	0.5	0.66	·	3.6	i
CC(/C=N/NC(=O)c1nnn(-c2nonc2N)c1C(C)C)=C\c1ccco1	8%	·	7.7	·	1.1	6.7	i
CCOC(=O)N1CCN(Cc2nc(N)nc(Nc3ccc(Cl)cc3)n2)CC1	0%	1.6	1.8	0.68	-4.4	5.3	i
COc1ccc(C(=O)N(C(C)C)C(C)C)c(OC)c1	-3%	0.4	·	0.72	-1.2	0.0	·
CC(C)(CNC(=O)c1cccc(NS(=O)(=O)c2ccc(Br)cc2)c1)N1CCOCC1	·	5.1	0.3	0.7	-0.3	2.6	i
CCCC(=O)N1CCC1(C)C(=O)NS(=O)(=O)c1ccc(OC)cc1 (centres undefined)	·	·	-2.1	·	·	-0.5	i
CC1CCc2c(sc3nn[nH]c(=O)c23)C1 (centres undefined)	5%	5.3	-6.6	0.68	3.7	-0.7	i
O=C(O)c1cc(-c2ccc(N3CCOCC3)cc2)nn1-c1ccc(F)cc1F	>100µM*	6.2	-3.6	0.71	0.3	3.7	i
COc1ccc(NC(=O)C2CCN(S(=O)(=O)c3ccc(C)cc3)CC2)cc1OC	4%	2.8	·	0.72	1.2	1.3	·
Cc1ccc(CC2C(=O)N(c3nc(C)cc(C)n3)C(=O)C2C)cc1 (centres undefined)	-1%	3.5	-2.0	0.63	2.6	1.1	i
O=C(CSc1nc2ccccc2o1)NCc1ccc2c(c1)OCO2	-1%	2.2	-0.1	0.74	3.4	1.8	i
O=C(/C=N/O)Nc1ccc2sc3ccccc3c2c1	24%	·	-1.3	·	-0.3	2.6	·
CSc1nc2ccc(Nc3nc(N4CCOCC4)nc(N4CCOCC4)n3)cc2s1	-11%	2.5	·	0.71	·	-1.8	·
Cc1ccc(S(=O)(=O)N(C)C)cc1NC(=O)COC(=O)CCCOc1ccccc1	-9%	3.4	-0.8	0.69	-2.1	-1.0	i
COc1ccccc1OCCCCNCCO	2%	5.9	·	0.68	-2.9	1.3	·

Source: PubChem (several laboratories)
